# Assay outcomes: PubChem, National Center for Advancing Translational Sciences (NCATS)
# VDR inhibitor = blocks the human vitamin D receptor; VDR-SRC2-3 peptide fluorescence polarization, 2 h; Potency, µM, without a hit: max response, negative = inhibition, hits mostly inhibitors; 400,000 tested, 0.93% active; AID 504847; active = well fitted inhibition curve with a large enough effect; inconclusive = small, poorly fitted or top-dose-only effect, or another doubt; inactive = no such curve, though single readings can be large or run the other way; note: series mostly up to about 120 µM
# Target sequence (P11473 whole entry, looked up): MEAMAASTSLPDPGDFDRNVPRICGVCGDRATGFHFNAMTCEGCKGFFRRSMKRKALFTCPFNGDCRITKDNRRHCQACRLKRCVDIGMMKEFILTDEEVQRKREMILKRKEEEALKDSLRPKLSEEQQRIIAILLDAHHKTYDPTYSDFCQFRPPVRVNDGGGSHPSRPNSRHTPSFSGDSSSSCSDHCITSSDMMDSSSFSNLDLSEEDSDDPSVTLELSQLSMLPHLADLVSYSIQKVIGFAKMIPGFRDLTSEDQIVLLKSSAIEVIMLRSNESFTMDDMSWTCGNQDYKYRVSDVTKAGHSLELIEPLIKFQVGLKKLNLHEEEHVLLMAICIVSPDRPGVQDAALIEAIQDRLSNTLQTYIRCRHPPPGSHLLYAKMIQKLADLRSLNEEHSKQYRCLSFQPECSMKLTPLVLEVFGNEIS
#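 After 23 nl compound addition and a short centrifugation, plates sat for 2 hours at ambient temperature; polarization of fluorescence then indicated loss of VDR binding to peptide SRC2-3.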
# The depositor's hits bear a star; ? = inconclusive; & = joins results of further samples; [ ] = remark or other dose. % is set by controls: 0 for no effect and ±100 for the full control effect; potency is the fitted concentration of half-maximal effect. Some of the compounds tested. The share of hits here may be higher or lower than overall.
VDR inhibitor	canonical_smiles
-5%	O=C(c1ccccc1)N1CCC(CC2CC(c3cccc(Br)c3)=NO2)(C(=O)NCC2CCCCC2)CC1 (centres undefined)
-2%	CC1(C)CC(=O)C(C=NCc2cccnc2)=C(O)C1
28µM*	O=C(/C=C/c1ccncc1)c1ccc2c(c1)OCCO2
-29%	CC1(C)CCC(=O)N2CC[C@H]3c4cc5ccccc5nc4C[C@@H]1[C@H]32
2%	CCOC(=O)C1CCN(C(=O)c2sc3nc(C)nc(N4CCC(C)CC4)c3c2C)CC1
18%	Cc1ccccc1NC(=O)c1ccc2c(c1)C(=O)N(CCC(C)C)C2=O
17%	COc1ccc(NC(=O)CSCC(=O)Nc2cc(Cl)ccc2N2CCCC2)cc1
-19%	CCCCCCc1ccc(N2C[C@H](CCCCC)[C@@H](CC(=O)NCc3ccc(OC)cc3)C2=O)cc1
-8%	Cc1cccc(N(Cc2cc3ccccc3[nH]c2=O)S(C)(=O)=O)c1
36%[activator]	CCOC(=O)C1CCN(S(=O)(=O)Cc2ccccc2)CC1
68%[activator]	Cn1c(SCC(=O)NCc2ccc3c(c2)OCO3)nc2scc(-c3cccs3)c2c1=O
-12%	CCOC(=O)C(CCCOc1cccc(OC)c1)C(=O)OCC
-1%	O=C(Nc1ccn(Cc2c(F)c(F)cc(F)c2F)n1)c1ccc(COc2ccc(Cl)cc2Cl)o1
-21%	Cc1ccc(-c2nc3ccccc3[nH]2)cc1NC(=O)COc1ccc(Cl)cc1Cl
11%	COCCCN=C1NN=C(c2cc(C)n(-c3ccccc3)c2C)CS1
-28%	CCN(Cc1ccccc1)C(=O)Cn1cc(S(=O)(=O)NC)c(S(=O)(=O)NC)c1
-14%	Cc1ccc2c(c1)COc1c3ccc(C(=O)O)cc3nn1-2
9%	O=C(Nc1nnc(C2=COCCO2)o1)c1ccc(F)cc1
-21%	O=C(COC(=O)CCS(=O)(=O)c1ccccc1)NC(=O)c1ccc(OC(F)F)cc1
-7%	CN(C)CCNC(=O)C(=O)Nc1cc2c3c(c1)CCC(=O)N3CCC2
-2%	COc1ccc(CNC(=O)COC(=O)c2ccc(Br)o2)cc1
-5%	Clc1ccc2nc(N3CCCCC3)sc2c1
7%	N#Cc1ccccc1NC(=O)CSc1nnc(-c2ccccc2)n1-c1ccccc1
8%	O=C(Nc1ccc(N2CCOCC2)cc1)c1cccc(S(=O)(=O)N2CCC(Cc3ccccc3)CC2)c1
-12%	N#C/C(=C\c1ccc(F)cc1)C(=O)Nc1ccccn1
12%	CCc1ccc2ncc3c(-c4ccc(C)cc4)nn(CC(=O)Nc4ccc(C)cc4)c3c2c1
0%	CCN1CCN(C(=O)CN(c2ccc(F)cc2)S(=O)(=O)c2ccc(OC)c(OC)c2)CC1
1%	CCCCCOC(=O)CSc1n[nH]c(=O)[nH]c1=O
9%	Cc1ccc(N(CC(=O)N2CCCC2)S(C)(=O)=O)c(C)c1
12%	CC(C)(C)OC(=O)NCc1ccc(CNC(=O)c2nc[nH]c2C(=O)N2CCN(C(=O)OC(C)(C)C)CC2)cc1

# An excerpt from above in order of count of non-hydrogen atoms, descending.
VDR inhibitor	canonical_smiles
12%	CCc1ccc2ncc3c(-c4ccc(C)cc4)nn(CC(=O)Nc4ccc(C)cc4)c3c2c1
-28%	CCN(Cc1ccccc1)C(=O)Cn1cc(S(=O)(=O)NC)c(S(=O)(=O)NC)c1
18%	Cc1ccccc1NC(=O)c1ccc2c(c1)C(=O)N(CCC(C)C)C2=O
-8%	Cc1cccc(N(Cc2cc3ccccc3[nH]c2=O)S(C)(=O)=O)c1

# Shown bar-delimited: 26 of the compounds above.
Compound | VDR inhibitor
CC1(C)CC(=O)C(C=NCc2cccnc2)=C(O)C1 | -2%
O=C(/C=C/c1ccncc1)c1ccc2c(c1)OCCO2 | 28µM*
CC1(C)CCC(=O)N2CC[C@H]3c4cc5ccccc5nc4C[C@@H]1[C@H]32 | -29%
CCOC(=O)C1CCN(C(=O)c2sc3nc(C)nc(N4CCC(C)CC4)c3c2C)CC1 | 2%
Cc1ccccc1NC(=O)c1ccc2c(c1)C(=O)N(CCC(C)C)C2=O | 18%
COc1ccc(NC(=O)CSCC(=O)Nc2cc(Cl)ccc2N2CCCC2)cc1 | 17%
CCCCCCc1ccc(N2C[C@H](CCCCC)[C@@H](CC(=O)NCc3ccc(OC)cc3)C2=O)cc1 | -19%
Cc1cccc(N(Cc2cc3ccccc3[nH]c2=O)S(C)(=O)=O)c1 | -8%
CCOC(=O)C1CCN(S(=O)(=O)Cc2ccccc2)CC1 | 36%[activator]
Cn1c(SCC(=O)NCc2ccc3c(c2)OCO3)nc2scc(-c3cccs3)c2c1=O | 68%[activator]
CCOC(=O)C(CCCOc1cccc(OC)c1)C(=O)OCC | -12%
O=C(Nc1ccn(Cc2c(F)c(F)cc(F)c2F)n1)c1ccc(COc2ccc(Cl)cc2Cl)o1 | -1%
Cc1ccc(-c2nc3ccccc3[nH]2)cc1NC(=O)COc1ccc(Cl)cc1Cl | -21%
COCCCN=C1NN=C(c2cc(C)n(-c3ccccc3)c2C)CS1 | 11%
CCN(Cc1ccccc1)C(=O)Cn1cc(S(=O)(=O)NC)c(S(=O)(=O)NC)c1 | -28%
Cc1ccc2c(c1)COc1c3ccc(C(=O)O)cc3nn1-2 | -14%
O=C(Nc1nnc(C2=COCCO2)o1)c1ccc(F)cc1 | 9%
O=C(COC(=O)CCS(=O)(=O)c1ccccc1)NC(=O)c1ccc(OC(F)F)cc1 | -21%
CN(C)CCNC(=O)C(=O)Nc1cc2c3c(c1)CCC(=O)N3CCC2 | -7%
COc1ccc(CNC(=O)COC(=O)c2ccc(Br)o2)cc1 | -2%
Clc1ccc2nc(N3CCCCC3)sc2c1 | -5%
N#Cc1ccccc1NC(=O)CSc1nnc(-c2ccccc2)n1-c1ccccc1 | 7%
O=C(Nc1ccc(N2CCOCC2)cc1)c1cccc(S(=O)(=O)N2CCC(Cc3ccccc3)CC2)c1 | 8%
N#C/C(=C\c1ccc(F)cc1)C(=O)Nc1ccccn1 | -12%
CCc1ccc2ncc3c(-c4ccc(C)cc4)nn(CC(=O)Nc4ccc(C)cc4)c3c2c1 | 12%
CCN1CCN(C(=O)CN(c2ccc(F)cc2)S(=O)(=O)c2ccc(OC)c(OC)c2)CC1 | 0%

# (more compounds)
VDR inhibitor	canonical_smiles
3%	CCC(C)[C@H]1CN=C(N)N1CCc1cccc2ccccc12 (some centres undefined)
-13%	COc1ccc(CNc2ccnc(-c3ccccc3OC)n2)c(OC)c1
-4%	CC1CCN(C(=O)c2cc3c(=O)n(C)c4cc(Cl)ccc4c3s2)CC1
14%	Fc1ccc(COc2ccc3ccccc3c2CNc2nn[nH]n2)cc1
-9%	[O-]/C(=C(\C(=S)Nc1cccc2ccccc12)[n+]1ccccc1)c1ccc2c(c1)OCCO2
6%	COc1ccc(C(=O)N/C(=C\c2cccc([N+](=O)[O-])c2)C(=O)Nc2cccc(C(=O)O)c2)cc1
-3%	CCOC(=O)C(C)N1C(=O)S/C(=C/c2cc(C)n(-c3ccncc3)c2C)C1=O (centres undefined)
5%	Cc1ccccc1OCC(=O)OC(C)CN1CCN(C)CC1 (centres undefined)
12%	O=C(c1ccc(C(F)(F)F)cc1)N1CCC(c2nc(-c3ccc(S(=O)(=O)N4CCCC4)cc3)no2)CC1
4%	C#CCNC(=O)C1=C[C@@H](c2ccc3c(c2)OCO3)C[C@@H](OCCCCO)O1
8%	CN(Cc1ccc(F)cc1)Cc1nc(-c2cnccn2)no1
44%[activator]	c1ccc(Cn2nnnc2C(c2cccs2)N2CCc3ccccc3C2)cc1 (centres undefined)
8%	CSCCC(NC(=O)COc1ccccc1)C(=O)N1CCN(C(C)=O)CC1 (centres undefined)
-11%	CN(C)CCNC(=O)C(=O)c1c(-c2ccccc2)cc2ccccn12
1%	COC(=O)c1ccc(S(=O)(=O)N2C3CCC2CC(NC(=O)NC2CCCCC2)C3)cc1 (centres undefined)
16%	Cc1c(CN2CCN(CC(C)C)C(CCO)C2)[nH]c2ccc(Cl)cc12 (centres undefined)
1%	CCCCOC(=O)Nc1nnc(SCCOc2ccc(C)cc2)s1
8%	Cc1ccccc1NC(=O)C1Cc2ccccc2CN1C(=O)c1ccco1 (centres undefined)
-9%	O=C(c1ccc(S(=O)(=O)N2CCOCC2)cc1)N1CCc2ccccc2C1
10%	CCOC(=O)C1=C(CP(=O)(c2ccccc2)c2ccccc2)NC(=O)NC1c1ccc(OC)cc1 (centres undefined)
-9%	COc1ccc(-c2ccc([C@H]3[C@H]4C=CC[C@@H](C)[C@@H]4C(=O)N3Cc3ccccc3)c(F)c2)cc1
10%	Cc1ccc(S(=O)(=O)N(C)c2ccc(OCC(=O)Nc3ccc(C(=O)N(C)C)cc3)cc2)cc1C
11%	CC(C(=O)O)C1CCC2C3CC=C4CC(O)CC[C@@]4(C)C3CC[C@]12C (some centres undefined)
13%	CN1CCc2nc(NC(=O)COc3ccc4ccccc4c3)sc2C1
-19%	CC(=O)Nc1cccc(Oc2ncccc2[N+](=O)[O-])c1
16%	COc1ccc(NC(=O)Nc2nnc(N3CCCCCC3)s2)cc1
-12%	CC1CN(CCOCCSc2ccccc2)CC(C)O1 (centres undefined)
-20%	CCOC(=O)c1oc2ccccc2c1NC(=O)c1ccc(Cl)s1
-7%	Cc1ccc2nc(-c3ccc(Cl)cc3)cc(C(=O)OCC(=O)c3ccccc3)c2c1
9%	Cc1ccc(NC(=O)C(C)c2cccc(C(=O)c3ccccc3)c2)cc1O (centres undefined)
-20%	CCOC(=O)C1=C(O)C(Nc2nc3ccccc3s2)(C(F)(F)F)N=C1C (centres undefined)
-18%	N#Cc1ccc(CN2CCN(C(=O)CNC(=O)Cc3cccc4ccccc34)CC2)cc1
-14%	COc1ccc(S(=O)(=O)N(C)C)cc1NC(C)C(=O)Nc1cccc(C#N)c1 (centres undefined)
10%	COc1ccc(C(=O)Nc2ccc(Cl)cc2C(=O)NCCN2CCOCC2)cc1
-26%	Cc1ccc(C)c(S(=O)(=O)NCC(c2ccc3c(c2)OCO3)N2CCOCC2)c1 (centres undefined)
3%	CN1CC(=O)N(CC(=O)Nc2ccc(OC(F)(F)F)cc2)c2ccccc2C1=O
-8%	Cc1csc(SCC(=O)Nc2ccc(F)cc2Cl)n1
-16%	Cc1ccc(C(=O)NCC(=O)OCC(=O)c2ccc(Cl)s2)cc1
6%	Cc1cc(C)cc(NC(=O)C(OC(=O)c2ccc([N+](=O)[O-])o2)c2ccccc2)c1 (centres undefined)
-2%	Cc1cc(NC(=O)Nc2nnc(N3CCCCC3)s2)ccc1Br
6%	COc1ccccc1N1CCN(C(=S)NC(=O)/C=C/c2ccc(F)cc2)CC1
-20%	O=C(Nc1ccc(S(=O)(=O)N2CCOCC2)cc1)c1ccccc1
-12%	CCN(CC(=O)NCc1cccs1)C(=O)/C=C/c1cc(OC)c(OC)c(OC)c1
5%	COCCNC(=S)N(CCCO)Cc1cc2cc3c(cc2[nH]c1=O)OCCO3
14%	COc1cccc(NC(=O)Nc2ccc(C)c(Cl)c2)c1
-15%	CN(C)/C=C/C(=O)c1c(F)cccc1F
-14%	Cc1ccc(C(=O)NCc2ccc3c(c2)OCO3)cc1S(=O)(=O)N1CCOCC1
-1%	COc1ccc(-c2cc(C(F)(F)F)nc(SCC(=O)NCc3ccco3)n2)cc1OC
-12%	O=C(C[C@@H]1C/C=C\CCCC(=O)OC[C@@H]2CCCN2C1=O)N[C@H](CO)Cc1ccccc1
2%	Cc1ccccc1CS(=O)(=O)Cc1ccc(C(=O)NCc2cccnc2)o1
-13%	COC(=O)c1[nH]c2c(c1C)C(=O)CC(c1cc(OC)ccc1OC)C2 (centres undefined)
-8%	Clc1cccc(CNCC2CCCO2)c1Cl (centres undefined)
79µM*	COc1cc(N(C)C)ccc1C=c1c2ccccc2n2c1cc(-c1ccccc1)[n+]2C
-7%	CCOC(=O)CN1C(=O)/C(=C2\SC(=S)N(NC(=O)c3cccnc3)C2=O)c2ccccc21
1%&9%	Cc1onc(-c2c(Cl)cccc2Cl)c1C(=O)N[C@@H]1C(=O)N2[C@@H]1SC(C)(C)[C@@H]2C(=O)O
-2%	Clc1ccc(OCCCc2nc(-c3cccnc3)no2)c(Cl)c1
-2%	CC1CCN(S(=O)(=O)c2ccc(C(=O)Nc3sccc3C(N)=O)cc2)CC1
-30%	CCOc1ccc(C(=O)c2cn(CC(=O)Nc3ccc4c(c3)OCCO4)c3ccc(OC)cc3c2=O)cc1
-10%	CC(Nc1nc(C(F)(F)F)nc2ccccc12)c1cccs1 (centres undefined)
-6%	CC(C)C(=O)NC(=S)Nc1ccc(S(=O)(=O)N2CCCC2)cc1

# (further entries)
VDR inhibitor	canonical_smiles
4%	O=C(NCC1CCCO1)c1onc(CSc2ccc(Cl)cc2)c1C(=O)O (centres undefined)
25%	C=CCSc1nsc(N)n1
-3%	CCC(C)c1ccc(OCC(=O)Nc2cccc(C(=O)Nc3ccc(C(=O)O)cc3)c2)cc1 (centres undefined)
-11%	O=C1C2CSCN2C(=O)CN1CCCN1CCN(C(c2ccccc2)c2ccccc2)CC1 (centres undefined)
-2%	Cc1ccc(Cl)cc1N=C(N)N=C(N)N
?	Cc1ccc(C(=O)/C=C/c2ccccc2)o1
7%	Cn1nnnc1SCc1nnc(-c2ccc(F)cc2)o1
